Screening data as filed in PubChem BioAssay.
CapD inh: blocks the Bacillus anthracis CapD enzyme; z-score (test concentration not listed); purified CapD enzyme, fluorescence intensity read-out; hits give low values; some hits fall short of the stated cut; AID 492967; 140,000 tested, 0.23% active;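 active = z-score under -4 in either of two replicates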;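 also: stock transfer was 100 nL into about 40 µL; score is relative to mean and spread of the plate; one replicate is shown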
AID504770: growth inhibitors of E. coli YBA685 in a screen for V. cholerae RctB (chromosome II replication) inhibitors; 130,000 tested, 0.27% active; z-score (concentration not given with the values); E. coli YBA685 rctB-dependent plasmid, OD600 growth, 3 h; hits give low values;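 active = z-score under -2 on both plates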;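 also: wells of about 30 µL received 100 nL stock; score is relative to mean and SD of the test wells; the first replicate is given; strong numbers were not always called active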
Starred values were filed as active, the others as inactive; & = joins results of further samples. An unsorted share of the library; 0.41% or so of the library scored in one or more.

Results for COC(=O)c1ccc2c(=O)[nH]c(COC(=O)C3CC4CCCC(C3)C4=O)nc2c1 (centres undefined) ?
AID504770: -0.5

How did COC(=O)C1=C(C)Nc2nc(SC)[nH]c(=O)c2C1c1ccccc1 (centres undefined) do in these assays?
CapD inh: 5.02; AID504770: -1.1

How did O=C(O)C1CC(=O)N(CCC23CC4CC(CC(C4)C2)C3)C(=Nc2ccc(Cl)cc2)S1 (centres undefined) do in these assays?
CapD inh: 0.405; AID504770: -0.85

Results for CCOC(=O)c1ccc2c(c1)nc(SCC(=O)c1ccc3c(c1)OCCO3)n2CC ?
AID504770: -0.2

What do the screens show for `Oc1ccccc1CNc1ccccc1Br`?
CapD inh: -1.41; AID504770: -0.25

Results for CCOC(=O)/C(=N\O)C1=NC2(CCCC2)Cc2cc(OC)c(OC)cc21 ?
CapD inh: -0.685; AID504770: 1.05

Results for O=C1CC(c2ccc(Cl)cc2)CC(O)=C1C=NCCN1CCNCC1 (centres undefined) ?
CapD inh: -0.12; AID504770: 0.9

How did CCN1CCN(CC(O)COc2cccc(C)c2)CC1 (centres undefined) do in these assays?
CapD inh: -0.325; AID504770: -0.05

Results for CN(C)S(=O)(=O)c1ccc(C(=O)NCCc2ccccc2)cc1 ?
CapD inh: -0.135; AID504770: -0.7

Results for COc1ccc(CC(=O)Oc2ccc(C#N)cc2)cc1 ?
CapD inh: -0.31; AID504770: -0.55

Continued (7 carried over from the part before).
Results for CCOC(=O)c1ccc2c(c1)nc(SCC(=O)c1ccc3c(c1)OCCO3)n2CC ?
AID504770: -0.2

What do the screens show for `Oc1ccccc1CNc1ccccc1Br`?
CapD inh: -1.41; AID504770: -0.25

Results for CCOC(=O)/C(=N\O)C1=NC2(CCCC2)Cc2cc(OC)c(OC)cc21 ?
CapD inh: -0.685; AID504770: 1.05

Results for O=C1CC(c2ccc(Cl)cc2)CC(O)=C1C=NCCN1CCNCC1 (centres undefined) ?
CapD inh: -0.12; AID504770: 0.9

How did CCN1CCN(CC(O)COc2cccc(C)c2)CC1 (centres undefined) do in these assays?
CapD inh: -0.325; AID504770: -0.05

Results for CN(C)S(=O)(=O)c1ccc(C(=O)NCCc2ccccc2)cc1 ?
CapD inh: -0.135; AID504770: -0.7

Results for COc1ccc(CC(=O)Oc2ccc(C#N)cc2)cc1 ?
CapD inh: -0.31; AID504770: -0.55

How did O=C(CN1CCC2(CC1)N=C(c1ccccc1)C(=O)N2)Nc1ccc(F)cc1F do in these assays?
CapD inh: -0.875; AID504770: -0.4

What do the screens show for `O=C(O)c1ccc(N=Cc2cn(Cc3ccccc3)c3ccccc23)cc1`?
CapD inh: 0.935; AID504770: -0.55

How did CN1CCC(N(C)CC(O)COCc2cccs2)CC1 (centres undefined) do in these assays?
AID504770: -0.15

Results for CCOc1cc(C2CC(=O)NC(SCC(=O)Nc3ccccc3C)=C2C#N)ccc1O (centres undefined) ?
CapD inh: -0.16

What do the screens show for `N#CCSc1ccc(OC(F)(F)F)cc1`?
CapD inh: -0.09; AID504770: -0.65

Results for Cn1c(C(=O)O)ccc1S(=O)(=O)N1CCCCCC1 ?
CapD inh: 0.615; AID504770: -0.4

What do the screens show for `O=C1CS/C(=N/N=C/c2ccn[nH]2)N1`?
CapD inh: -0.57

Results for COc1cc(C(=O)NCCN2CCOCC2)nc(OC)n1 ?
CapD inh: -0.04

How did Cc1ccc(OC(=O)c2ccc(C(C)(C)C)cc2)c(Br)c1 do in these assays?
CapD inh: 0.245

Results for Cc1cc(OCc2ccccc2)ccc1[N+](=O)[O-] ?
CapD inh: -0.28

What do the screens show for `O=S(=O)(Cc1ccccc1Cl)N1CCCCC1`?
CapD inh: 0.415; AID504770: 0

Results for CCOC(=O)C1(O)CC(C)=NN1C(=O)c1ccc(-c2ccccc2)cc1 (centres undefined) ?
CapD inh: 0.795

How did CCNC(=O)CSc1nnc(-c2cc(OC)c(OC)c(OC)c2)o1 do in these assays?
AID504770: -6.1*

What do the screens show for `CC(=O)Oc1cccc2cc(-c3nc(-c4ccc(F)cc4)no3)c(=O)oc12`?
CapD inh: 3.1; AID504770: 0.3

How did O=C(CSc1nc(-c2ccccc2)c(-c2ccccc2)o1)NC1CCS(=O)(=O)C1 (centres undefined) do in these assays?
AID504770: 0.6

What do the screens show for `CCN(C(=O)c1oc2ccccc2c1C)c1ccccc1`?
CapD inh: -0.73; AID504770: -1.35

Results for CC(C)(C)OC1CC(C(=O)O)N(C(=O)OCc2ccccc2)C1 (centres undefined) ?
CapD inh: 0.925; AID504770: 0.1

Results for C=CCc1ccc(NC(C)=O)cc1O ?
CapD inh: 0.17

What do the screens show for `CCCCS(=O)(=O)NC1=NCN(C2CCN(Cc3ccccc3)CC2)CN1`?
CapD inh: -0.56; AID504770: -0.2

How did CC(C)(S)P(=O)(O)c1ccccc1 do in these assays?
CapD inh: -0.645; AID504770: 0.25

Already shown: two of the compounds above.
What do the screens show for `CCCCS(=O)(=O)NC1=NCN(C2CCN(Cc3ccccc3)CC2)CN1`?
CapD inh: -0.56; AID504770: -0.2

How did CC(C)(S)P(=O)(O)c1ccccc1 do in these assays?
CapD inh: -0.645; AID504770: 0.25

The listing continues.
What do the screens show for `CCc1nn(Cc2cccc(C)c2)c(=O)c2cc3cc(C)ccc3n12`?
CapD inh: 1.66; AID504770: -0.2

How did COc1ccc2[nH]c(=O)cc(O)c2c1 do in these assays?
CapD inh: 6.14; AID504770: -0.55

Results for O=C(c1ccc(F)cc1)c1c[nH]c(C(=O)NCc2ccc(F)cc2)c1 ?
CapD inh: -0.535; AID504770: -0.95

Results for COc1ccc(-c2nc(C#N)c(N(C)C)o2)cc1 ?
CapD inh: 87.9; AID504770: -1.2

What do the screens show for `CC(CCO)Nc1nc2c(c(=O)n(C)c(=O)n2C)n1Cc1ccccc1Br` (centres undefined)?
CapD inh: 0.39; AID504770: -0.75

What do the screens show for `CCc1c(C)[nH]c2c1C(=O)C(CN1CCOCC1)CC2` (centres undefined)?
CapD inh: 0.01

Results for Cc1ccc(NC(=S)NNC(=O)c2nn(-c3ccccc3)nc2C)cc1C ?
CapD inh: 2.48

What do the screens show for `O=C(c1ccc(Cl)cc1)N1CCc2ccccc2C1`?
CapD inh: -0.245; AID504770: 0

How did CCOc1ccccc1OC(=O)c1ccc2ncsc2c1 do in these assays?
AID504770: -0.65

What do the screens show for `COc1cccc(C2CC(c3cccs3)=NN2C(=O)CN2CCN(C)CC2)c1O` (centres undefined)?
AID504770: 0

How did Cc1ccc2cc(CCNC(=O)C3CCCC3)c(=O)[nH]c2c1 do in these assays?
CapD inh: 3.22; AID504770: -0.85

How did O=C(Cn1nc(-c2ccccc2)ccc1=O)Nc1nccs1 do in these assays?
CapD inh: -0.47; AID504770: -1.4

Results for COC(=O)C12CC3CC(CC(C3)C1)C2 ?
CapD inh: 0.235

What do the screens show for `CCN(CC)S(=O)(=O)N1CCC(C(=O)NCc2ccc(C)cc2)CC1`?
CapD inh: 0.21; AID504770: 1.05

What do the screens show for `COc1cccc(/C=C2/Sc3ccc(C(=O)NCC(OC)OC)cc3NC2=O)c1`?
CapD inh: -0.65; AID504770: -0.15

What do the screens show for `COC(=O)COc1cc(OC)ccc1C(=O)OC`?
CapD inh: -0.585; AID504770: -0.75

What do the screens show for `CCC(=O)N1C(CC(=O)Nc2ccc(F)cc2)C(=O)NC2CCCCC21` (centres undefined)?
CapD inh: 0.16; AID504770: -0.35

How did Cc1ccc(OCC(O)CN2CC(C)CC(C)C2)cc1 (centres undefined) do in these assays?
AID504770: 0

What do the screens show for `O=S(=O)(NCCN1CCOCC1)c1ccc2ccccc2c1`?
CapD inh: 0.295; AID504770: 0.6

What do the screens show for `N#CC1=C(SCC(=O)NCc2ccccc2)NC2=C(C(=O)CCC2)C1c1ccco1` (centres undefined)?
CapD inh: 3.18; AID504770: 0.45

What do the screens show for `O=C(OCC1CC1)c1cnc(N2CCOCC2)nc1C(F)(F)F`?
CapD inh: 0.48; AID504770: -0.25

Results for C(=NCc1cccnc1)c1c2ccccc2cc2ccccc12 ?
CapD inh: 0.25; AID504770: -0.45

Results for CCCN(CCC)S(=O)(=O)c1ccc(C(=O)Nc2nnc(-c3cccc(OC)c3)o2)cc1 ?
AID504770: 2.35

How did O=C(Nc1ccc(Cl)c(Cl)c1)c1c(O)c2ccccc2[nH]c1=O do in these assays?
AID504770: -0.15

How did CSc1cccc(NC(=O)C2CCN(S(=O)(=O)c3ccc4[nH]c(=O)oc4c3)CC2)c1 do in these assays?
CapD inh: 0.62; AID504770: -0.25

What do the screens show for `NS(=O)(=O)c1ccc(Br)cc1I`?
CapD inh: -0.11; AID504770: 0.7

How did C=CC(=O)N1CN(C(=O)C=C)CN(C(=O)C=C)C1 do in these assays?
CapD inh: 0.16; AID504770: -0.5

What do the screens show for `CCOC(=O)C(C)(C)Sc1nc2c(c(=O)n1-c1ccc(F)cc1)SCC2`?
CapD inh: 0.27; AID504770: -0.8

How did O=C1CC2(CCCC2)CC(=O)N1CCCCN1CCN(c2ncccn2)CC1 do in these assays?
CapD inh: 0.045&-0.63

How did Cc1ccc(OC(=O)Cn2c(C(F)(F)F)nc3ccccc32)cc1 do in these assays?
CapD inh: -0.625; AID504770: 0.05

How did Cc1cccc(NC2=NC(C)CS2)c1 (centres undefined) do in these assays?
CapD inh: -0.075; AID504770: -1.15

What do the screens show for `CCOC(=O)N1CCN(CC(O)COc2ccc(-c3ccccc3)cc2)CC1` (centres undefined)?
CapD inh: -0.335; AID504770: 0.1

What do the screens show for `CC1(C)CC(=O)C2=C(C1)NC1=C(C(=O)CC(C)(C)C1)C2c1ccc(Br)cc1`?
CapD inh: -0.865

Pulled by structure from above, three records:
How did Cc1cccc(NC2=NC(C)CS2)c1 (centres undefined) do in these assays?
CapD inh: -0.075; AID504770: -1.15

What do the screens show for `O=S(=O)(Cc1ccccc1Cl)N1CCCCC1`?
CapD inh: 0.415; AID504770: 0

How did CSc1cccc(NC(=O)C2CCN(S(=O)(=O)c3ccc4[nH]c(=O)oc4c3)CC2)c1 do in these assays?
CapD inh: 0.62; AID504770: -0.25

Molecules above that contain a tert-butyl group (2):
How did Cc1ccc(OC(=O)c2ccc(C(C)(C)C)cc2)c(Br)c1 do in these assays?
CapD inh: 0.245

Results for CC(C)(C)OC1CC(C(=O)O)N(C(=O)OCc2ccccc2)C1 (centres undefined) ?
CapD inh: 0.925; AID504770: 0.1
